GALR2 agonist: GALR2 (human) receptor agonism. O43603. GALR2-expressing cells, agonist activation read-out. activation, %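 (tested at 5 µM)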. actives 0.48% (n = 140,000);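 active = above mean plus 3 SD of all compounds, about 5% in these data, not always enough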;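 note: 0% = vehicle buffer wells and 100% = reference agonist at full effect; tested in CHO reporter cells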
Insulin prom inh: TRM-6 insulin promoter activity inhibition | TRM-6 cells (human fetal islet line), insulin promoter-eGFP reporter, imaging; reporter expression induced with tamoxifen | inhibition, % at 2 µM | actives 0.9% (n = 130,000) | AID 1273;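 active = inhibition above the mean plus 3 SD, with well images judged a real hit on visual review, cut at about 60% in these data, passing the limit was not always enough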
HSV augment: increases HSV replication in cells | HSV replication augmentation in cells, fold increase | maximum fold increase | actives 0.005% (n = 220,000) | AID 1956;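 active = peak rise of 1.5-fold or more in the series; tested in PC3 cells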;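 note: first round at 10 µM; read as green reporter fluorescence; hits show the peak of a series up to 25 µM; 1 = signal of infected wells without compound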
RGS16-Gao: modulates binding between human RGS16 and Galphao. bead-based flow cytometry RGS16-Galphao binding, fluorescence; actives lie on both sides. binding response (% of control), % at 10 µM. actives 0.38% (n = 220,000);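 active = below 25% or above 175%, edge rows of some plates excepted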;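 note: Galphao activated by GDP with aluminum fluoride before binding; 100% = wells without compound and 0% = beads without RGS; some results beyond the cut were filed as inactive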
PKD1 inh: inhibitors of human PKD1 kinase. inhibition, %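 (about 10 µM by stock and volumes)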. Q15139. PKD1 kinase fluorescence polarization assay. actives 0.056% (n = 200,000);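 active = inhibition of 50% or more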;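 note: controls were vehicle for no effect and a reference inhibitor for full effect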
Target sequence (Q15139 whole entry, looked up): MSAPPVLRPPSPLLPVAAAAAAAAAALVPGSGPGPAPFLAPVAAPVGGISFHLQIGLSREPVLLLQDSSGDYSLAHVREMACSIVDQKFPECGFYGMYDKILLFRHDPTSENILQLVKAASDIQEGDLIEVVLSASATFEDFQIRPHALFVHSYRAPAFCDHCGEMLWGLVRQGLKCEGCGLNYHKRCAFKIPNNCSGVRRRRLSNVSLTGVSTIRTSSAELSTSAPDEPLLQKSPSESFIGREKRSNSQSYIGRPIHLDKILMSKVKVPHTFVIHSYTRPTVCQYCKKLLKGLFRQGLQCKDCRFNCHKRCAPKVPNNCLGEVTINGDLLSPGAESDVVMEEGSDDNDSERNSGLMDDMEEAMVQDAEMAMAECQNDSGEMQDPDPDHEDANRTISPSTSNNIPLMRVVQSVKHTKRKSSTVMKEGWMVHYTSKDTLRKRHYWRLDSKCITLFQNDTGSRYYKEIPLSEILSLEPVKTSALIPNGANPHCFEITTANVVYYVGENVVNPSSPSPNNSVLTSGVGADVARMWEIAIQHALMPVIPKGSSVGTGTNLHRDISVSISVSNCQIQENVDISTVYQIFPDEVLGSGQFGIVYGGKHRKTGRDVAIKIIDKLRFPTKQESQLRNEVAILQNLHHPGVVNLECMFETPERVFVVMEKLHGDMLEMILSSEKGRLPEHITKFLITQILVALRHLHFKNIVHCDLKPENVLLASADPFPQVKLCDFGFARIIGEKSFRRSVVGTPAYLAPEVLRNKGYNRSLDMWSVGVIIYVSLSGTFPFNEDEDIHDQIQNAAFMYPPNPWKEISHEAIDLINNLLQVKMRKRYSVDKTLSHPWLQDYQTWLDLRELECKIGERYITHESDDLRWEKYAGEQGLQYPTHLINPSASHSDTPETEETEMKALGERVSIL
Insulin prom inh cell count: recorded beside Insulin prom inh, whose call it bears; normalized cell count, %; measured here: cell count, toxicity; reference of the scale not given here;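 cells exposed to compound for 48 h; stained nuclei by imaging scaled within each plate; lower means fewer cells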
HSV augment primary fold: further read-out of HSV augment, marked with its call; fold increase; compound at 10 µM; measured here: primary screen fold increase 10 uM; tested in PC3 cells;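 GFP signal in the first replicate; 1 = infected wells without compound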
Numbers without * were called inactive; i = inactive; · = no result given.

| no. | Molecule | GALR2 agonist | Insulin prom inh | Insulin prom inh cell count | HSV augment | HSV augment primary fold | RGS16-Gao | PKD1 inh |
| --- | --- | --- | --- | --- | --- | --- | --- | --- |
| 1 | CCCN1CCN(C(=O)CN2C(=O)CC(C)(C)S(=O)(=O)c3ccccc32)CC1 | -1.7 | · | · | i | 1.19 | 98.6 | -5.8 |
| 2 | CCOC(=O)C1=C(c2ccccc2)Nc2ncnn2C1c1cccc(OC)c1OC (centres undefined) | -3.7 | 6.7 | 87.5 | i | 0.95 | 100.8 | -4.8 |
| 3 | CS(=O)(=O)N(CC(=O)Nc1cccnc1)c1ccc2c(c1)OCO2 | -1.9 | -268.0 | 42.4 | i | 1.01 | · | -11.5 |
| 4 | CCOc1cccc(OCCOCCN(C)C)c1 | -0.1 | 0.0 | 168.2 | i | 1 | 101.6 | -5.5 |
| 5 | CC(=O)Nc1cccc2c1C(=O)N(c1ccc(OC(C)=O)cc1)C2=O | · | · | · | i | 1.01 | 104.9 | -2.9 |
| 6 | COc1ccc(C2SCC(=O)N2CCCN(C)C)cc1 (centres undefined) | 7.6 | 22.6 | 87.4 | i | 0.74 | 100.1 | 12.8 |
| 7 | O=C(O)c1cccc(N2C(=O)c3ccc(C(=O)c4cccc([N+](=O)[O-])c4)cc3C2=O)c1 | · | · | · | i | 1.14 | 101.4 | · |
| 8 | CCOC(=O)CC(=O)CSc1ncnc2c1nnn2-c1ccc(OC)cc1 | · | -44.4 | 98.7 | i | 1.09 | 91.4 | -9.8 |
| 9 | Cc1c(Cl)cccc1NC(=O)C1NC(=O)CC1c1ccccc1 (centres undefined) | -1.1 | · | · | i | 1.18 | 125.3 | 8.4 |
| 10 | CCc1ccc(N2CC(C(=O)NCc3ccc4c(c3)OCO4)CC2=O)cc1 (centres undefined) | -1.1 | · | · | i | 0.87 | 102.4 | -7.2 |
| 11 | CC(CO)N1CCS(=O)(=O)CC1 (centres undefined) | -2.8 | 7.1 | 109.9 | i | 0.997 | 113.1 | 1.8 |
| 12 | O=C(c1ccccc1Br)N1CCn2c1nc1ccccc12 | · | -16.7 | 99.1 | i | 1.11 | 98.1 | -4.7 |
| 13 | O=C(CSc1nc2ccccc2c(=O)n1Cc1ccco1)NCCN1C(=O)CSC1=O | · | · | · | i | 1.05 | 98.6 | · |
| 14 | COc1ccccc1-n1c(CNC(=O)COc2ccccc2)n[nH]c1=S | 0.4 | 13.8 | 166.7 | i | 1.04 | 98.7 | -1.7 |
| 15 | CC(=NCCCNC1CCCCC1)C1=C(O)CC(C)(C)CC1=O | -0.4 | -89.5 | 131.8 | i | 1.02 | 135.9 | -0.1 |
| 16 | CC(=O)N(C(C)=O)c1nc2nc(C)cc(C)n2n1 | · | · | · | i | 0.98 | 97.3 | -4.8 |
| 17 | CCc1c(-c2ccccc2)nc2sc3c(c2c1N)CCCC3 | · | · | · | i | 0.97 | 106.0 | · |
| 18 | O=C(NCc1ccccc1C(F)(F)F)C1CC(c2cccc(F)c2)=NO1 (centres undefined) | · | · | · | i | 0.97 | 102.0 | · |
| 19 | CCOc1ccc(S(=O)(=O)Nc2ccccc2C(=O)NCc2ccco2)cc1 | -1.6 | 45.2 | 42.0 | i | 1.05 | 100.5 | -1.7 |
| 20 | COc1ccc(-c2nc(CSCC(=O)N3CCc4ccccc4C3)c(C)o2)cc1OC | -1.4 | · | · | i | 0.84 | 100.5 | -8.8 |
| 21 | Cc1ccc2nc3c(cc2c1)c(NC(=O)c1ccco1)nn3CC(C)C | · | · | · | i | 0.9 | 98.3 | · |
| 22 | CCOC(=O)c1cc2ccccc2n1CCN(CC)CC | -1.0 | -77.8 | 76.2 | i | 0.8 | 97.1 | -4.2 |
| 23 | COc1ccc(NC(=O)C2CCCN2C(=O)OC(C)(C)C)cc1 (centres undefined) | · | · | · | i | 1.04 | 88.5 | -6.7 |
| 24 | O=C(OCn1nnc2ccccc2c1=O)C1=COCCO1 | -0.6 | · | · | i | 0.91 | 94.2 | 1.6 |
| 25 | O=S(=O)(c1cccc(F)c1)N1CCCN(c2ccc(C(F)(F)F)cn2)CC1 | · | · | · | i | 1.02 | 102.4 | · |
| 26 | N#CCSc1nccc(-c2cc(Cl)sc2Cl)n1 | -3.5 | 45.2 | 81.0 | i | 0.91 | 110.5 | -12.2 |
| 27 | CCCCN(C)C(=O)c1sc2ncn(CC)c(=O)c2c1C | -0.9 | 9.1 | 179.4 | i | 1 | 101.4 | -4.0 |
| 28 | O=C(Cn1nc2n(c1=O)-c1ccccc1SC2)N/N=C/c1ccncc1 | · | · | · | i | 1.09 | 88.5 | · |
| 29 | Cc1ccc(-n2nnnc2-c2cnc(-c3cccnc3)nc2C(F)(F)F)cc1 | -2.3 | 7.0 | 88.3 | i | 0.73 | 102.8 | -4.0 |
| 30 | CC(C)CCN(C(=O)CNC(=O)c1cccs1)C(C(=O)NC1CCCC1)c1ccncc1 (centres undefined) | · | · | · | i | 0.88 | 98.0 | -1.4 |

Some of the entries above, reformatted.
11. CC(CO)N1CCS(=O)(=O)CC1 (centres undefined)
  GALR2 agonist: -2.8 | Insulin prom inh: 7.1 | Insulin prom inh cell count: 109.9 | HSV augment: i | HSV augment primary fold: 0.997 | RGS16-Gao: 113.1 | PKD1 inh: 1.8
12. O=C(c1ccccc1Br)N1CCn2c1nc1ccccc12
  GALR2 agonist: · | Insulin prom inh: -16.7 | Insulin prom inh cell count: 99.1 | HSV augment: i | HSV augment primary fold: 1.11 | RGS16-Gao: 98.1 | PKD1 inh: -4.7
13. O=C(CSc1nc2ccccc2c(=O)n1Cc1ccco1)NCCN1C(=O)CSC1=O
  GALR2 agonist: · | Insulin prom inh: · | Insulin prom inh cell count: · | HSV augment: i | HSV augment primary fold: 1.05 | RGS16-Gao: 98.6 | PKD1 inh: ·
14. COc1ccccc1-n1c(CNC(=O)COc2ccccc2)n[nH]c1=S
  GALR2 agonist: 0.4 | Insulin prom inh: 13.8 | Insulin prom inh cell count: 166.7 | HSV augment: i | HSV augment primary fold: 1.04 | RGS16-Gao: 98.7 | PKD1 inh: -1.7

The list continues.
item | SMILES | GALR2 agonist | Insulin prom inh | Insulin prom inh cell count | HSV augment | HSV augment primary fold | RGS16-Gao | PKD1 inh
31 | Cc1ccc(C)c(NC(=O)CSc2ccc(-c3ccco3)nn2)c1 | -0.2 | · | · | i | 0.99 | 92.9 | 3.5
32 | Cc1nc(N2CCN(c3ccccc3)CC2)nc2c1C(=O)CC(c1ccccc1)C2 (centres undefined) | -0.6 | · | · | i | 0.89 | 67.5 | -3.2
33 | COC(=O)c1ccc(S(=O)(=O)NCCc2ccccc2OC)n1C | · | · | · | i | 0.94 | 101.3 | ·
34 | CC(=O)Nc1ccccc1C(=O)C(=O)O | -3.9 | 53.6 | 67.7 | i | 1.05 | 109.3 | 2.6
35 | Cc1cc(SCC(=O)N/N=C/c2ccc(O)cc2O)c(C)cc1Br | -1.8 | 50.0 | 145.4 | i | 0.56 | 98.5 | 5.8
36 | C[n+]1cn(/N=C/c2ccccc2)c2ccccc21 | -0.6 | -8.3 | 86.2 | i | 0.71 | 97.0 | 4.9
37 | Cc1noc(C)c1C(=O)N1CCC(Cc2ccccc2)CC1 | -1.4 | -23.1 | 116.4 | i | 0.93 | 105.5 | -2.3
38 | CC(C)CN(C(=O)CN1CCN(c2ccc(F)cc2)CC1)c1c(N)n(CC(C)C)c(=O)[nH]c1=O | 0.3 | · | · | i | 0.95 | 97.2 | -1.0

Nothing new here: an excerpt of the list.
item | SMILES | GALR2 agonist | Insulin prom inh | Insulin prom inh cell count | HSV augment | HSV augment primary fold | RGS16-Gao | PKD1 inh
37 | Cc1noc(C)c1C(=O)N1CCC(Cc2ccccc2)CC1 | -1.4 | -23.1 | 116.4 | i | 0.93 | 105.5 | -2.3
38 | CC(C)CN(C(=O)CN1CCN(c2ccc(F)cc2)CC1)c1c(N)n(CC(C)C)c(=O)[nH]c1=O | 0.3 | · | · | i | 0.95 | 97.2 | -1.0

Following part:
item | SMILES | GALR2 agonist | Insulin prom inh | Insulin prom inh cell count | HSV augment | HSV augment primary fold | RGS16-Gao | PKD1 inh
39 | CCCCCOc1ccc(NC(=O)CCCC(=O)O)cc1 | -0.8 | · | · | i | 0.93 | 99.7 | -13.5
40 | O=c1cc(O)c2c(=O)n(-c3ccccc3)c3ccccc3c2o1 | -2.9 | · | · | i | 0.93 | 101.2 | 7.9
41 | OCC1(Cc2ccccc2)CCCN(C2CCCC2)C1 (centres undefined) | · | · | · | i | 0.9 | 103.6 | -3.9
42 | C/C(=N\Nc1ccccc1Cl)c1ccc(-n2ccnc2)cc1 | · | 50.0 | 97.0 | i | 0.98 | 71.3 | -11.1

4 entries drawn at random from the list so far, as already listed:
item | SMILES | GALR2 agonist | Insulin prom inh | Insulin prom inh cell count | HSV augment | HSV augment primary fold | RGS16-Gao | PKD1 inh
41 | OCC1(Cc2ccccc2)CCCN(C2CCCC2)C1 (centres undefined) | · | · | · | i | 0.9 | 103.6 | -3.9
42 | C/C(=N\Nc1ccccc1Cl)c1ccc(-n2ccnc2)cc1 | · | 50.0 | 97.0 | i | 0.98 | 71.3 | -11.1
39 | CCCCCOc1ccc(NC(=O)CCCC(=O)O)cc1 | -0.8 | · | · | i | 0.93 | 99.7 | -13.5
40 | O=c1cc(O)c2c(=O)n(-c3ccccc3)c3ccccc3c2o1 | -2.9 | · | · | i | 0.93 | 101.2 | 7.9

Assay outcomes from PubChem BioAssay.
